Compound activity: PubChem BioAssay, National Center for Advancing Translational Sciences (NCATS)
HSD17B inh = HSD17B dehydrogenase inhibition; Q99714; recombinant HSD17B10, NADH fluorescence kinetic; many of its hits are not listed in these tables; 75,000 compounds, 7.6% hits; Potency, µM (top dose mostly 57.1 µM), without a hit: top-dose activity change, negative = inhibition, actives largely listed as inhibitors; active = well fitted inhibition curve with a large enough effect; inconclusive = small, poorly fitted or top-dose-only effect; inactive = no such curve, though single readings can be large or run the other way;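 also: the protocol describes HADH2 (HSD17B10) and not the HSD17B4 of the title; nearly all actives have a fitted effect of over 70% in size; most hits overshoot -100% by far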
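20 nM HADH2, pH 9.0 Tris/Tween; cpd preinc 15 min RT; start w/ 1 mM NAD+ + 90 uM b-hydroxybutyryl-CoA; kinetic fluor ex360/em450 q30s x 4 min; delta last-first.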
Active calls of the source: *; ? = inconclusive; [ ] = dose if it differs, or a comment. % is scaled to controls: 0 for no effect and ±100 for the full control effect; potency is read from the fitted curve at half-maximal effect.

SMILES	HSD17B inh
CCOC(=O)N1CCN(C(=O)COc2ccc(Br)cc2Cl)CC1	4%
O=c1[nH]ncc2c3ccccc3n(Cc3ccccc3)c12	?
C=CCc1c(C)nn(CC(=O)O)c1-c1ccccc1	0%
CCc1nnc(NC(=O)CCN2C(=O)CCC2=O)s1	-4%
O=C(c1ccccc1F)N1CCN(Cc2cccc(Cl)c2)CC1	-3%
CCN(c1cccc(C)c1)S(=O)(=O)c1ccc(O)c(C(=O)O)c1	?
CC(C)CNC(=O)c1ccccc1NC(=O)c1ccc(CN2CCOCC2)cc1	-1%
CC(=O)Nc1cccc(C)c1	-1%
CCOc1cc(C2C(C(=O)OC)=C(C)N=C3SCCC(=O)N32)ccc1OC(C)=O (stereo not drawn)	-8%
CCOC(=O)c1sc(NC(=O)c2ccco2)nc1-c1ccccc1	-2%
COc1cccc(CNC(=O)C2CCCN(S(=O)(=O)c3cnc[nH]3)C2)c1 (stereo not drawn)	9%
CCOC(=O)N1CCC(NC(=O)c2cc(S(=O)(=O)N3CCC4(CC3)OCCO4)ccc2F)CC1	?
CCOC(=O)c1oc2cc(O)c(CC)cc2c(=O)c1-c1ccc2c(c1)OCCO2	-7%
N=c1ccn2c(n1)O[C@@H]1[C@H](O)[C@H](CO)O[C@@H]12	-6%
O=C(Nc1ccon1)c1sc2cc(F)ccc2c1Cl	6%
Cc1cc(Cl)ccc1N1C(=O)CC(SCCC(=O)O)C1=O (stereo not drawn)	-8%
O=C(CCn1cccc1)Nc1cc(F)ccc1F	-4%
CC(C)OC(=O)C(C#N)c1nc2ccccc2nc1N1CCN(Cc2ccccc2)CC1 (stereo not drawn)	-5%
CCc1nccn1S(=O)(=O)c1ccc2ccccc2c1	2%
C[C@]12CCC3c4ccc(OCC(=O)O)cc4CCC3C1CCC2=O (stereo partly drawn)	5%[11.4 µM]

Of the compounds above, these contain four or more nitrogen atoms:
SMILES	HSD17B inh
CCc1nnc(NC(=O)CCN2C(=O)CCC2=O)s1	-4%
COc1cccc(CNC(=O)C2CCCN(S(=O)(=O)c3cnc[nH]3)C2)c1 (stereo not drawn)	9%
CC(C)OC(=O)C(C#N)c1nc2ccccc2nc1N1CCN(Cc2ccccc2)CC1 (stereo not drawn)	-5%

Back to the main list; the 3 compounds before the break are reprinted first.
SMILES	HSD17B inh
CC(C)OC(=O)C(C#N)c1nc2ccccc2nc1N1CCN(Cc2ccccc2)CC1 (stereo not drawn)	-5%
CCc1nccn1S(=O)(=O)c1ccc2ccccc2c1	2%
C[C@]12CCC3c4ccc(OCC(=O)O)cc4CCC3C1CCC2=O (stereo partly drawn)	5%[11.4 µM]
Cc1onc(-c2ccccc2)c1C(=O)NC(CC(=O)O)c1ccc(OC(C)C)cc1 (stereo not drawn)	15%
COC(=O)CSc1nnc(C)n1-c1cccc(C#N)c1	1%
O=c1nc(N2CCOCC2)ccn1-c1nc(-c2ccccc2)oc1-c1ccccc1	?
COc1ccc(N2CC(C(=O)Nc3ncccc3C)CC2=O)cc1 (stereo not drawn)	5%
CSc1nc(C)cc(OCC#N)n1	-13%
CC1CCCCC1NS(=O)(=O)c1ccc(S(=O)(=O)N2CCCC2)cc1 (stereo not drawn)	8%
CC(=O)c1c(O)c(C)c(O)c2c1OC1=CC(=O)C(C(C)=O)C(=O)[C@@]12C (stereo partly drawn)	10%
CCCN1CCN(CCCNC(=O)C2CCCN(c3nnc(-n4cccc4)s3)C2)CC1 (stereo not drawn)	-5%
Cn1nnc(NC(=O)CSc2nnnn2-c2ccc(F)cc2)n1	4%
CC(=O)NC(CC(C)C)C(=O)NC(=O)NCc1ccccc1 (stereo not drawn)	5%
CC1CCN(C(=O)C2CC(c3ccc(F)cc3)=NO2)CC1 (stereo not drawn)	1%
COc1ccc(-c2c(C)oc3c(CN4CCN(C)CC4)c(O)ccc3c2=O)cc1	25µM*
OC[C@H]1O[C@@H](OC[C@H]2O[C@@H](O)[C@H](O)[C@@H](O)[C@@H]2O)[C@H](O)[C@@H](O)[C@@H]1O	-2%
Cc1nc2nc[nH]n2c(=O)c1NC(=O)c1cccc(OCC(C)C)c1	2%
CCn1c(SCC(=O)Nc2ccccc2C)nnc1-c1ccccc1O	-9%
Cn1c(CSc2nc3ccccc3s2)n[nH]c1=S	0%
Cc1cccc(Nc2n[nH]c(=S)s2)c1C	25µM*
Cc1nn2c(-c3ccco3)nnc2c2ccccc12	-6%
CCOC(=O)c1ccc(COC(=O)c2cc3ccccc3oc2=O)o1	25µM*
Cc1cc(C(=O)OCc2nnc(-c3ccccc3)o2)c(C)n1-c1ccccc1	0%

Single values from the list:
HSD17B inh result of `C=CCc1c(C)nn(CC(=O)O)c1-c1ccccc1` → 0%
HSD17B inh result of `COc1ccc(N2CC(C(=O)Nc3ncccc3C)CC2=O)cc1` (stereo not drawn) → 5%

Additional entries follow:
SMILES	HSD17B inh
O=C(Cc1nc(-c2ccc(Br)s2)cs1)NCCN1CCOCC1	-3%
COc1ccc(N2CCN(CC(=O)N3CCC(C)CC3)CC2)cc1	-6%
c1nc(NC2CCCCCC2)c2[nH]cnc2n1	32µM*
O=C1C2C3C=CC(C3)C2C(=O)N1c1ccc2c(c1)CCC2 (stereo not drawn)	8%
O=C(COC(=O)c1n[nH]c2ccccc12)NC(=O)NC12CC3CC(CC(C3)C1)C2	-11%
N#CC1=C(c2ccccc2)N=P(N2CCOCC2)(N2CCOCC2)N=C1N1CCOCC1	10%
Cc1nc2ncnn2c(N2CCN(c3cccc(C(F)(F)F)c3)CC2)c1C	2%
O=C(CSc1nc2c(c(=O)n1-c1ccc(F)cc1)SCC2)NCc1ccco1	2%
O=C(CSc1nc2ncccc2[nH]1)c1ccc(F)cc1	7%
Cc1ccc(S(=O)(=O)Nc2cccc3ncccc23)s1	0%
O=C(Nc1nc(-c2ccc3c(c2)OCCO3)cs1)c1ccc(S(=O)(=O)N2CCCCC2)cc1	?
Cc1nc2c(F)c(F)c(C(F)(F)F)c(F)c2[nH]1	5%
COc1ccc(-c2cc(=O)oc3cc(OCc4nn[nH]n4)ccc23)cc1	?
Cc1cc(N)n(-c2nc(-c3cccnc3)nc3ccccc23)n1	-28%
CCN(CC)S(=O)(=O)c1csc(C(=O)Nc2ccccn2)c1	8%
C=CCOc1ccc(/C(O)=C2\C(=O)C(=O)N(CCOC)C2c2cccnc2)cc1 (stereo not drawn)	0%
CC1(C)NC(=O)N(CC(O)CNC23CC4CC(CC(C4)C2)C3)C1=O (stereo not drawn)	9%
O=C(O)/C=C/c1ccc(/C=C/C(=O)O)cc1	-4%
COc1cccc(-c2nc(CS(=O)CC(=O)NCc3ccc4c(c3)OCO4)c(C)o2)c1 (stereo not drawn)	-16%
C=C(C)C(O)/C=C/C=C/c1ccccc1 (stereo not drawn)	-1%[11.4 µM]

Quoted at random: 4 records from the list
SMILES	HSD17B inh
Cc1nc2ncnn2c(N2CCN(c3cccc(C(F)(F)F)c3)CC2)c1C	2%
COc1cccc(-c2nc(CS(=O)CC(=O)NCc3ccc4c(c3)OCO4)c(C)o2)c1 (stereo not drawn)	-16%
O=C(O)/C=C/c1ccc(/C=C/C(=O)O)cc1	-4%
O=C(COC(=O)c1n[nH]c2ccccc12)NC(=O)NC12CC3CC(CC(C3)C1)C2	-11%

Following part:
SMILES	HSD17B inh
COc1ccc(Cn2nnnc2C(c2ccc(F)cc2)N2CCN(C3CCCC3)CC2)cc1 (stereo not drawn)	-1%
Cc1cc(C(=O)Nc2cccc3ncccc23)no1	4%
Cc1ccc(S(=O)(=O)N(C)c2ccc(C(=O)O)cc2)cc1	5%
Cc1cc(-c2ccc(N=Nc3cc(S(=O)(=O)O)c4ccccc4c3N)c(C)c2)ccc1N=Nc1cc(S(=O)(=O)O)c2ccccc2c1N	16µM*
COc1cccc(-n2cc3c(=O)n(C)c(=O)n(C)c3c2)c1	3%
COc1ccc(S(=O)(=O)NC(CC(=O)NCc2ccco2)c2ccco2)cc1 (stereo not drawn)	0%
Brc1cnn(-c2nc(N3CCOCC3)nc(N3CCOCC3)n2)c1	2%
CNC(=O)[C@@H]1O[C@@H](n2cnc3c(NCc4ccc(N)cc4)ncnc32)[C@@H](O)[C@H]1O	5%
COC(=O)[C@@]1(Cc2ccc(F)cc2)[C@H]2c3cc(C(=O)N(C)C)n(Cc4ccsc4Br)c3C[C@H]2CN1C(=O)c1ccccc1	4%
CCC(=O)Nc1ccc2nc(C3CC3)n(Cc3ccccc3)c(=O)c2c1	-15%
O=C(Cn1cnc2c(cnn2-c2ccccc2)c1=O)NCc1ccccc1	6%
CCC(C)NC(=O)c1c(N)n(/N=C/c2ccccn2)c2nc3ccccc3nc12 (stereo not drawn)	11%
COc1cccc(C(=O)N2CCN(S(=O)(=O)Cc3ccccc3)CC2)c1	-2%
C[C@H](NC(=O)OC(C)(C)C)C(=O)NCC1CCC(C(=O)O)CC1 (stereo partly drawn)	11%
OC1(CN2CCOCC2)C2CN3CCN(C2)CC1(c1ccccc1)C3 (stereo not drawn)	1%
CCOc1cccc(NC(=O)C2CCCN(S(=O)(=O)c3ccc(-n4cnnn4)cc3)C2)c1 (stereo not drawn)	-7%
Cc1occc1-c1nnc(SCC(=O)NCc2cccs2)n1CC1CCCO1 (stereo not drawn)	5%
Cc1ccc(S(=O)(=O)NCC2CCC(C(=O)NCc3ccco3)CC2)cc1 (stereo not drawn)	-1%
Cc1nn(C)c(C)c1S(=O)(=O)N1CCC(C(=O)NC(C)c2ccccc2)CC1 (stereo not drawn)	5%
O=C1COc2ccc(C(=O)COC(=O)c3ccc4ccccc4n3)cc2N1	-21%
COc1ccccc1NS(=O)(=O)c1ccc(NC(=O)CCNC(=O)c2ccco2)cc1	9%
Cc1n[nH]c(C)c1S(=O)(=O)N1CCCC(C(=O)N2CCN(c3ccc(Cl)cc3)CC2)C1 (stereo not drawn)	7%
CSc1c(CC(=O)NCCO)n(C)c2ccccc12	25µM*
COC(=O)c1ccc2c(=O)n(Cc3ccc4c(c3)OCO4)c(SCC(=O)N3CCCC3)nc2c1	7%
CC1CCCCC1NC(=O)CN1CCC(O)(c2ccc(F)cc2)CC1 (stereo not drawn)	5%
CCOc1cc(C)c(Cl)cc1S(=O)(=O)N1CCCC1	5%
CCOC(=O)c1cc(-c2nnc(-c3ccc(Oc4ccccc4)cc3)o2)c(C)nc1C	25µM*
O=C(CN1CCOc2ccccc21)NCc1ccc(F)cc1	3%
Cc1ccc(NC(=O)CN(C)C(=O)CCCN2C(=O)c3ccccc3C2=O)cc1	3%
COc1ccc(CCn2c(SCC(=O)Nc3cc(C)on3)nc3ccsc3c2=O)cc1OC	-10%
CCOC(=O)N1CCN(c2ncnc3c2cnn3-c2ccc(Cl)cc2)CC1	6%
CCOC(=O)c1c(C)oc2c1c(/C=N/c1ccccn1)c(O)c1ccccc12	-13%
COc1ccc2[nH]cc(CCNc3ccnc(-c4ccccc4C(F)(F)F)n3)c2c1	10%
CCOC(=O)c1[nH]c(C)c(C(=O)NCCc2ccc(OC)cc2)c1C	5%
CCOC(=O)c1ccccc1NC(=O)c1ccccc1N(C)S(C)(=O)=O	4%
CCOC(=O)C1=C(c2ccccc2)N=C2SCC(=O)N2C1c1ccc2c(c1)OCO2 (stereo not drawn)	3%
O=C(NCc1ccco1)C(c1ccncc1)N(CCC1=CCCCC1)C(=O)Cn1nnc2ccccc21 (stereo not drawn)	-3%
CCOc1nc(OCC)nc(N2CCC(C)CC2)n1	8%
CCOc1ccc(CC(=O)NCc2cn3c(C)csc3n2)cc1	0%
Cc1cnc(C(=O)Nc2ccc(C(=O)N(C)C3CCCCC3)cc2)cn1	9%
O=C(O)C1CCCCC1C(=O)Nc1ccccn1 (stereo not drawn)	7%
COc1ccc(NC(=O)C2CC(c3cc(OC)c(OC)c(OC)c3)=NO2)cc1OC (stereo not drawn)	-4%
CCCCC(c1nnnn1CCOC)N1CCN(c2cccc(OC)c2)CC1 (stereo not drawn)	-16%
Cn1cccc1Cc1nnc(SCC(=O)NC2CCCC2)n1CCc1ccccc1	6%
COCCNS(=O)(=O)c1ccc2c(c1)C(=O)c1cc(S(=O)(=O)NCCOC)ccc1-2	-9%
CCc1ccccc1N1C(=O)C2CC=CCC2C1=O (stereo not drawn)	9%
CC(=O)c1c(C)n(-c2ccccc2)c2ccc(O)cc12	1%
CC(C)(C)c1ccc(OC(=O)Nc2ccc(O)c(C(=O)O)c2)cc1	4µM*
Cc1nc2nc(CSc3nnc(C)s3)cc(=O)n2[nH]1	2%
Cc1cccc(CNc2ncncc2-c2ccccc2Cl)c1	3%
CCCCOc1ccc(C(=O)NC)cc1	8%
COc1ccccc1CN(CC(=O)NCC1CCCO1)C(=O)CNS(=O)(=O)c1ccc(C)cc1 (stereo not drawn)	6%
CC1CC(C)CN(C(=O)C(NS(=O)(=O)c2ccc3c(c2)oc(=O)n3C)C(C)C)C1 (stereo not drawn)	3%
Cc1cc(NC(=O)Cn2c(=O)c3c(ncn3CCC(C)C)n(Cc3ccccc3)c2=O)no1	0%
OC(c1cccs1)c1nccc2ccccc12 (stereo not drawn)	-8%
c1cc(C2CCCCC2)ccc1Oc1nc(N2CCOCC2)nc(N2CCOCC2)n1	3%
Cc1nc(SCC(=O)NCc2ccc3c(c2)OCO3)c(C#N)c2c1CCCC2	-9%
Cc1noc(C)c1-c1nccc(N2CCOCC2)n1	?
CCN1C(C)=C(C(=O)OC)C(c2ccccc2)N2C(=O)[C@](O)(C(=O)OC)CC(C#N)=C12 (stereo partly drawn)	-3%[11.4 µM]
Cc1nc2oc3ccccc3c(=O)c2c(=O)n1Cc1ccccc1	5%
CN(C1CCCCC1)S(=O)(=O)c1ccc2c(c1)c(=O)c(C(=O)NCCCN1CCCC1)cn2C	4%

A portion of the library, so the mix of outcomes need not match the whole.
